Screening results: PubChem, National Center for Advancing Translational Sciences (NCATS)
VACV Venus inh = qHTS for Stage-Specific Inhibitors of Vaccinia Orthopoxvirus: Venus Reporter Primary qHTS | Vaccinia virus Venus reporter expression, fluorescence | Potency, µM (titrated, usually from 36.5 µM), without a hit: at the highest dose activity change, negative = inhibition, actives largely listed as inhibitors | 0.46% of 330,000 active; active means well fitted inhibition curve with a large enough effect; inconclusive means small, poorly fitted or top-dose-only effect; inactive means no such curve, though single readings can be large or run the other way; tested in A549 cells; also: nearly all actives have a fitted effect of over 30% in size; inactives centre near -10
Vaccinia mCherry = qHTS for Stage-Specific Inhibitors of Vaccinia Orthopoxvirus: mCherry Reporter Primary qHTS; Vaccinia virus mCherry reporter infection, fluorescence; about a quarter of the inactives have no number; Potency, µM (top dose mostly 36.5 µM), for inactives: top-dose activity change, negative = inhibition, hits mostly inhibitors; 0.63% of 310,000 active; AID 720579, 2013; active = well fitted inhibition curve with a large enough effect; inconclusive = small, poorly fitted or top-dose-only effect; inactive = no such curve, though single readings can be large or run the other way; tested in A549 cells; also: nearly all actives have a fitted effect of over 35% in size; inactives centre near -10
The depositor's hits bear a star; i = inactive; u = inconclusive; x = no result given; ! = not active in a repeat; [ ] = another dose, or the depositor's remark. % is scaled to controls: 0 for no effect and ±100 for the full control effect; potency is read from the fitted curve at half-maximal effect.

mol | VACV Venus inh | Vaccinia mCherry
CC(C)[C@H](NC(=O)NC1CCCc2ccccc21)C(=O)O (some centres undefined) | 3% | -10%
COc1ccc(N2CCN(C(CNC(=O)C(=O)NC3CCCC3)c3ccco3)CC2)cc1 (centres undefined) | -20% | i
COc1cccc(C(=O)/C=C/Nc2ccc(S(=O)(=O)Nc3cc(OC)nc(OC)n3)cc2)c1 | -5% | -6%
CN1C(=O)/C(=C/c2cccc([N+](=O)[O-])c2)C(=O)N1c1ccccc1 | -8% | -10%
CCOc1ccc(S(=O)(=O)/N=C(/Nc2ccc(C(C)=O)cc2)c2ccccc2)cc1 | -17% | -30%
CN(c1ccccc1)S(=O)(=O)c1ccc(NC(=O)C2CCCCC2C(=O)O)cc1 (centres undefined) | -5% | x
COc1ccc(OC)c(Nc2ncnc3c2cnn3-c2cccc(C)c2)c1 | u | u
CCCN(CC(=O)Nc1ccccc1C)C(=O)/C=C/c1ccc(S(=O)(=O)N2CCCCCC2)cc1 | -16% | -11%
CC1=C(C(=O)OCCOc2ccccc2)C(c2coc3ccccc3c2=O)C2=C(CCCC2=O)N1 (centres undefined) | -16% | 7%
C=C1C=C(C(F)F)n2ncc(C(=O)Nc3cccc(CC)c3)c2N1 | -15% | -14%

Continuation:
mol | VACV Venus inh | Vaccinia mCherry
CC(=O)N(Cc1cccs1)C1CCOC(C)(C)C1 (centres undefined) | -12% | x
COc1ccc(Nc2ncnc3onc(-c4ccc(Cl)cc4)c23)cc1Cl | -22% | -29%
COc1ccccc1N1CCN(C(=O)Cn2nc(C(F)(F)F)c3c2CCC3)CC1 | -11% | x
COc1ccc(O)c(/C=N/NS(=O)(=O)c2ccc(C)cc2)c1 | -12% | -28%
Cc1cc(C)c(OCCN(C)Cc2ccccc2)c(Br)c1 | 0% | -5%
CCn1c(=O)c2sccc2n2c(CCCC(=O)Nc3ccc(Oc4ccccc4)cc3)nnc12 | -8% | -17%
O=C(Nc1ccccc1)NC1CCCCCCC1 | -8%[7.34 µM] | -7%[7.34 µM]
COc1ccc(S(=O)(=O)c2c(SC)nn(CC(=O)Nc3cccc(C)c3C)c2N)cc1 | -6% | -15%
CN(CC(=O)Nc1ccc(S(N)(=O)=O)cc1)Cc1ccccc1F | -12% | -4%
CCCCOC(=O)C(C#N)c1nc2ccccc2nc1N1CCOCC1 (centres undefined) | 5% | x

The list continues:
mol | VACV Venus inh | Vaccinia mCherry
CN(C)c1ccc(/C=N/NC(=O)c2sccc2-n2cccc2)cc1 | -17% | -17%
CC(=O)ON1C(C)(C)CC(OC(=O)c2ccccc2)CC1(C)C | -12% | -16%
CN(NS(=O)(=O)c1ccc(F)cc1)c1ncc(C(F)(F)F)cc1Cl | -8% | -1%
Nc1cccc(S(=O)(=O)N2CCOCC2)c1 | -6% | -10%
O=C(N/N=C(\c1ccccc1)c1cccnc1)C(O)(c1ccccc1)c1ccccc1 | -27% | x
Cc1ccccc1Cn1c2ccccc2c2cnn(CC(=O)NC(C)CCc3ccccc3)c(=O)c21 (centres undefined) | -13% | -10%
COC(=O)CSC1=C(C#N)C(c2ccc(F)cc2)CC(=O)N1 (centres undefined) | -18% | -20%
Cc1nnc(N2C(=O)C(O)=C(C(=O)c3ccco3)C2c2cccc3ccccc23)s1 (centres undefined) | -8% | -11%
COc1ccc(C2C=C(c3ccccc3)Nc3nc(NC(=O)/C=C/c4ccccc4Cl)nn32)cc1 (centres undefined) | u | u
COc1ccc2[nH]cc(CCNS(=O)(=O)c3ccc(C)cc3)c2c1 | -14% | i

Following part
mol | VACV Venus inh | Vaccinia mCherry
O=C(NCCc1ccccc1)c1cnc2sc(N3CCCC3)nn2c1=O | -23% | i
COc1ccc(CCn2c(=O)c3cccnc3n(CC(=O)Nc3cccc(C)c3)c2=O)cc1OC | -8% | -14%
CC(=O)Nc1ccc(C(O)(C(F)(F)F)C(F)(F)F)cc1 | -7% | i
COC(=O)[C@H](C)NC(=O)Nc1ccc(OC(F)(F)F)cc1 | -9% | x
CCOc1ccc(S(=O)(=O)N(C)CCO)cc1-c1nc2c(C(C)(C)C)nn(C)c2c(=O)[nH]1 | -24% | -26%
COc1cccc(NC(=O)CSc2ccc(-c3ccco3)nn2)c1 | -8% | i
CCOC(=O)CC(NS(=O)(=O)c1ccc2[nH]c(=O)sc2c1)c1ccc(C)cc1 (centres undefined) | -11% | -10%
CCOC(=O)CSc1nc2ccccc2c(=O)n1C1CCCC1 | -6% | -11%
O=C1[C@@H]2CSCN2C(=O)CN1Cc1c(F)cccc1Cl | -6% | i
Cc1cccc(NC(=O)c2ccc(S(=O)(=O)C(F)F)cc2)c1C | -14% | -22%

(further entries)
mol | VACV Venus inh | Vaccinia mCherry
NS(=O)(=O)c1ccc(CCNC(=O)c2ccc(Cl)c(S(=O)(=O)N3CCCCCC3)c2)cc1 | u | u
CCOc1ccc(NC(=O)CN(C)C(=O)C2CC(=O)N(CCc3ccc(OC)c(OC)c3)C2)cc1OCC (centres undefined) | -10% | -14%
CN(CCN1CCOCC1)C(=O)c1cc(COc2ccc(F)cc2Cl)on1 | -7% | i
CC1(C)CC(=O)c2c(O)cc(OCC(=O)NCCc3ccc(S(N)(=O)=O)cc3)cc2O1 | -1% | -8%
COc1ccc(C(=O)Nc2ccnn2C2CCN(Cc3ccncc3)CC2)cc1 | -11% | -8%
COc1ccccc1-c1ccc(SCC(=O)NC2CCCCC2)nn1 | -20% | i
COc1ccc(CCNC(=O)CCCCn2c(=O)c3ccccc3n(CC(=O)Nc3ccc(C)cc3C)c2=O)cc1OC | -12% | -19%
CCCCn1c(=O)n(CC(=O)Nc2c(CC)cccc2CC)c(=O)c2c1nc(CO)n2CCC | 5% | x
Cn1c(=O)c2c(ncn2CC(=O)N/N=C/c2ccco2)n(C)c1=O | -5% | -10%
CSc1nc(N)n2nccc2n1 | 0% | 16%

The list goes on.
mol | VACV Venus inh | Vaccinia mCherry
S=C(NCc1ccccn1)Nc1ccc(Cl)c(Cl)c1 | -20% | -22%
CCOc1cc(OCC)cc(C(=O)N2CCC[C@H]2C(=O)N2CCC[C@H]2C(=O)N[C@@H](C)c2ccccc2)c1 | -3% | i
Cc1ccc(-n2c(O)c(/C=C3/C(c4ccccc4)=Nc4ccccc43)c(=O)[nH]c2=O)cc1 | -11% | -7%
CNc1ccc(Br)cc(C(=O)/C=C/c2ccc(OC)cc2OC)c1=O | -4% | -28%
Cc1ccc(NC(=O)C2=C(O)c3ccccc3N(C)S2(=O)=O)cc1 | 2% | -11%
C[C@@H]1COC(=O)[C@@H](CC(=O)OC(C)(C)C)C/C=C\C[C@@H](CC(=O)N[C@@H](CO)Cc2ccccc2)C(=O)N1 | -14% | u
Cc1cc(C)n(-c2nnc3c4ccccc4n(C)c3n2)n1 | -10% | i
COC(=O)c1ccc(-c2ccc(F)cc2)nc1C | -8% | -5%
COc1ccc(C(=O)C(c2ccccc2)N2CCOCC2)cc1 (centres undefined) | -6% | x
CCOC(=O)N1CCN(C(=S)NC(=O)c2cccc(OC)c2)CC1 | -5% | -15%

Other entries.
Every second line gives: VACV Venus inh, Vaccinia mCherry
CC(=O)NCCC(=O)N1CCc2c([nH]c3ccccc23)C1c1cccc(C)c1 (centres undefined)
    -7%, -7%
COc1ccc(-c2cc(C(=O)OC(C)C(=O)c3ccccc3)c3cccc(Cl)c3n2)cc1 (centres undefined)
    0%, -16%
COCCN(C(=O)C1CCN(C(=O)c2ccccc2C)CC1)c1c(N)n(CC(C)C)c(=O)[nH]c1=O
    -10%, -7%
COC(=O)c1ccccc1NC(=O)CSc1nnc2cc(C)c3cc(C)cc(C)c3n12
    -11%, -10%
O=C(O)c1cccc2c1C(=O)c1cc([N+](=O)[O-])ccc1-2
    -15%, 0%
CCCN(CCC)[C@@H]1CCc2c(OC)cccc2[C@@H]1C
    -1%, -12%
CCN(CC)C(=O)Nc1cnc2ccccc2c1
    -14%, -9%[1.46 µM]
Nc1ccc(-c2nc3ccc(N)cc3s2)cc1
    -9%, -12%
CCCCCSc1cc(O)c(C(CNC)C(C)C)cc1OC (centres undefined)
    -10%, -24%
C[C@@H](C(=O)OCn1nnc2ccccc2c1=O)N1C(=O)C2CCCCC2C1=O (some centres undefined)
    -10%, -20%

Additional compounds.
Every second line gives: VACV Venus inh, Vaccinia mCherry
CCN(C(=O)c1c(OC)cccc1OC)c1nnc(-c2cccnc2)s1
    -25%, -28%
COc1ccc(CNS(=O)(=O)c2ccc(N3CCCCS3(=O)=O)cc2)cc1
    -25%, -24%
O=C(CSCc1ccccc1Cl)Nc1c[nH]c(=O)[nH]c1=O
    -14%, -24%
Cc1ccc(/C=C/C(=O)NC(=S)Nc2ccccc2C(=O)NC2CCCCC2)cc1
    0%, -2%
CCOc1cc(CNS(=O)(=O)c2cn(C)cn2)cc(OCC)c1OCC
    3%[7.34 µM], 1%[7.34 µM]
CC(NC(=O)c1ccccc1)C(=O)OCC(=O)N1c2ccccc2Sc2ccccc21 (centres undefined)
    -1%, -9%
COCCCNCCOc1ccc(C(C)(C)c2ccccc2)cc1
    -19%, -23%
O=C(O)c1cccc(N/N=C(\N=Nc2ccccc2)c2ccccc2)c1
    u, -5%
CC(=O)Nc1ccc(NS(=O)(=O)c2cc(-c3n[nH]c(=O)c4ccccc34)ccc2C)cc1
    -6%, 0%
CCOC(=O)Cc1csc(NS(=O)(=O)c2ccccc2)n1
    -42%, x

Pulled one by one from the list above, 4 records:
Every second line gives: VACV Venus inh, Vaccinia mCherry
COCCCNCCOc1ccc(C(C)(C)c2ccccc2)cc1
    -19%, -23%
COc1ccc(CNS(=O)(=O)c2ccc(N3CCCCS3(=O)=O)cc2)cc1
    -25%, -24%
CC(=O)Nc1ccc(NS(=O)(=O)c2cc(-c3n[nH]c(=O)c4ccccc34)ccc2C)cc1
    -6%, 0%
O=C(CSCc1ccccc1Cl)Nc1c[nH]c(=O)[nH]c1=O
    -14%, -24%

(list continues)
Every second line gives: VACV Venus inh, Vaccinia mCherry
O=C(Nc1ccccc1Cl)c1cc(C2CCCN(C(=O)c3cccs3)C2)on1 (centres undefined)
    13%, 20%
COc1c2ccoc2nc2c(OC)c(O)ccc12
    -1%, 14%
O=C(CN1c2ccccc2S(=O)(=O)c2ccccc21)Nc1cccc(C(F)(F)F)c1
    4%, 3%
CC(=O)N1CCOc2cc(S(=O)(=O)NCc3ccccc3Cl)c(C)cc21
    -15%, -2%
CCN1CCN(c2ccc(S(=O)(=O)N3CCCCC3)cc2NC(=O)c2sccc2C)CC1
    -13%, -1%
CCCCOc1ccc(/C=C(\C#N)C(=O)NC2CC2)cc1
    -9%[7.34 µM], i[7.34 µM]
O=C1NC(=O)C(=Cc2ccsc2)C(=O)N1
    -3%, -1%
O=C1C(SCCO)=C(SCCO)C(=O)c2ccccc21
    u, 10µM*!
CN(C(=O)c1ccccc1-c1ccccc1C(=O)O)c1ccccc1
    -18%, i
CCCCn1c(=N)n(CC(O)COc2ccccc2)c2ccccc21 (centres undefined)
    u, x

(more compounds)
Every second line gives: VACV Venus inh, Vaccinia mCherry
Cc1ccccc1C(=O)NNC(=O)CSc1nc2ccccc2c(=O)[nH]1
    -1%, i
CCN(CC)CCN(C(=O)c1ccc2c(c1)OCCO2)c1nc2cc(C)cc(C)c2s1
    -4%, 0%
CC(Oc1ccc(Br)cc1)C(=O)N(C)CC(=O)Nc1ccc(N2CCOCC2)cc1 (centres undefined)
    -16%, -19%
COc1ccc(/C=N/Nc2ccccc2)cc1Cn1nc(C)c([N+](=O)[O-])c1C
    u, x
O=C(NCc1ccccn1)C(=O)NCC1OCCN1C(=O)c1ccc(Cl)cc1 (centres undefined)
    -17%, -11%
COCCNC(=O)c1nn(-c2ccc(C)cc2)c(=O)n(C)c1=O
    -11%, -3%
CCC1CCCCN1CCCNC(=O)c1c(O)nc2cc(C)ccn2c1=O (centres undefined)
    3%, 2%
Cc1cccc(-n2c(SCC(N)=O)nc3c(oc4ccccc43)c2=O)c1
    -5%, 2%
O=C(COc1ccc2c(-c3ccccc3)cc(=O)oc2c1)NC(Cc1c[nH]c2ccccc12)C(=O)O (centres undefined)
    -3%, -11%
O=S(=O)(c1ccc(OC(F)(F)F)cc1)N1CCN(c2nc(-c3cccs3)nc3ccccc23)CC1
    -21%, -4%

Next part:
Every second line gives: VACV Venus inh, Vaccinia mCherry
COCCNc1nc2cc(-c3cccc(Cl)c3)sc2c(=O)n1C
    -6%, i
O=C(CN(C(=O)c1csnn1)c1ccccc1Cl)NC1CCCC1
    -14%, -5%
CN=c1scc(-c2ccccc2F)n1/N=C/c1ccc(O)c(O)c1O
    -11%, i
O=C(O)Cc1c(-c2ccccc2)c2cc(Br)ccc2[nH]c1=O
    0%, i
CN(Cc1ccco1)c1cc(-c2ccccc2Cl)ncn1
    0%, i
CCOC(=O)N1CCC(N(CCCOC)C(=O)Nc2cccc(OC)c2)CC1
    -11%, i
CCc1ccc(Nc2nnc(SCC(=O)N(C)CC(=O)Nc3ccccc3CC)s2)cc1
    -25%, -14%
CCOC(=O)N1CCN(C(=O)C2CCN(Cc3nc(-c4ccccc4C)oc3C)CC2)CC1
    -10%, -15%
COc1ccc(OC)c(-n2c(SC)nnc2-c2c[nH]c3ccccc23)c1
    -12%, -15%
CC(NC(=O)OCc1ccccc1)C(=O)NCC(=O)NC(Cc1ccc(OC(C)(C)C)cc1)C(=O)OC(C)(C)C (centres undefined)
    -26%, -10%
COc1ccc(CCn2nnnc2C(C(C)C)N2CCN(c3ncccn3)CC2)cc1OC (centres undefined)
    -17%, 8%

Hits appear at their usual frequency; overall some 0.88% were active at least once.
